# FGF22 binding = binders of human FGF22 protein, primary screen, FGF22 synaptogenesis inhibitor project, biophysical, thermal shift, single point. calls only at 9.99 µM. AID 651658, 2012. recombinant FGF22 thermal shift, SYPRO orange fluorescence; percent of sucrose octasulfate shift, DMSO zero. hit rate 1.5% among 340,000. Fibroblast growth factor 22 (Homo sapiens), Q9HCT0;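 active = melting point raised past a set limit in the mean and every replicate; three in four hits are not shown here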
# Target sequence (Q9HCT0 whole entry, looked up): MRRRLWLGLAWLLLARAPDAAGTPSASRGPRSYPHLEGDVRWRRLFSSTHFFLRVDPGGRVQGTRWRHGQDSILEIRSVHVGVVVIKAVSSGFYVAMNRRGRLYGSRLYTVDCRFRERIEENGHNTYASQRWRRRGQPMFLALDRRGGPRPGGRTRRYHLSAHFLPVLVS
# Calls only; i = inactive. Only part of the results is shown; rates above refer to the full screens.
SMILES,FGF22 binding
COc1ccc(C(=O)N2C[C@H]3[C@@H](c4ccccc42)[C@H](CO)N3C(=O)c2cccc(F)c2)cc1,i
C[C@H]1CN([C@@H](C)CO)C(=O)c2cc(/C=C/c3ccccc3)cnc2O[C@@H]1CN(C)C,i
CCCC#Cc1ccc([C@@H]2[C@@H](CO)N3CCCCN(Cc4cccnc4)C[C@@H]23)cc1,i
OC[C@@H]1[C@@H](c2ccc(C#Cc3ccccc3F)cc2)[C@H]2CN(CC3CCOCC3)CCCCN12,i
CO[C@@H]1CN(C)C(=O)c2ccc(NS(C)(=O)=O)cc2OC[C@@H](C)N(C(=O)C2CCCC2)C[C@H]1C,i
CC1=CC(O)(c2ccccn2)P(=O)(c2ccccc2)C=C1C (stereo not drawn),i
C[C@@H]1CN([C@H](C)CO)C(=O)c2cc(NS(=O)(=O)c3cccs3)ccc2O[C@@H]1CN(C)Cc1ccncc1,i
COCC#Cc1ccc2c(c1)O[C@H](CN(C)S(=O)(=O)c1ccc(C)cc1)[C@H](C)CN([C@H](C)CO)S2(=O)=O,i
CN1C(=O)c2cc(NS(C)(=O)=O)ccc2OC[C@@H]2O[C@@H](CC(=O)O)CC[C@@H]21,i
COc1ccc(S(=O)(=O)N(C)C[C@@H]2Oc3c(NC(=O)Nc4ccc(F)cc4)cccc3C(=O)N([C@@H](C)CO)C[C@H]2C)cc1,i

# The closing 4 entries of the section before lead into the next:
SMILES,FGF22 binding
C[C@@H]1CN([C@H](C)CO)C(=O)c2cc(NS(=O)(=O)c3cccs3)ccc2O[C@@H]1CN(C)Cc1ccncc1,i
COCC#Cc1ccc2c(c1)O[C@H](CN(C)S(=O)(=O)c1ccc(C)cc1)[C@H](C)CN([C@H](C)CO)S2(=O)=O,i
CN1C(=O)c2cc(NS(C)(=O)=O)ccc2OC[C@@H]2O[C@@H](CC(=O)O)CC[C@@H]21,i
COc1ccc(S(=O)(=O)N(C)C[C@@H]2Oc3c(NC(=O)Nc4ccc(F)cc4)cccc3C(=O)N([C@@H](C)CO)C[C@H]2C)cc1,i
COc1ccccc1S(=O)(=O)N[C@@H]1CC[C@H](CCNC(=O)C2CCCC2)O[C@H]1CO,i
C[C@@H]1CN([C@@H](C)CO)C(=O)Cc2cc(NC(=O)Cc3ccccc3)ccc2O[C@@H]1CN(C)CC1CC1,i
COc1ccc2c3c([nH]c2c1)[C@@H](CO)N(C(=O)Nc1ccc(F)cc1)CC31CN(Cc2ccc(F)cc2)C1,i
CO[C@H]1CN(C)C(=O)c2cc(NC(=O)C3CCC3)ccc2OC[C@H](C)N(C(=O)NC(C)C)C[C@@H]1C,i
O=C(C[C@@H]1CC[C@@H](NS(=O)(=O)c2cccc(F)c2)[C@H](CO)O1)N1CCCCC1,i
C[C@H](CO)N1C[C@H](C)[C@@H](CN(C)Cc2ccc(C(=O)Nc3ccccc3N)cc2)Oc2ccc(NS(C)(=O)=O)cc2C1=O,i
O=C(c1ccccc1)N1CC[C@@H]2[C@H](CO)Nc3ccc(C#Cc4ccccc4F)cc3[C@@H]21,i
COc1ccccc1-c1ccc([C@H]2[C@@H](C#N)N(C(=O)CN(C)C)[C@H]2CO)cc1,i
N#C[C@H]1[C@H](c2ccc(-c3cccc(F)c3)cc2)[C@H](CO)N1C(=O)NC1CCCC1,i
C[C@H]1CN([C@@H](C)CO)S(=O)(=O)c2ccc(C3=CCCCC3)cc2O[C@H]1CN(C)Cc1ccccn1,i

# Brought forward from above: 3 entries; new compounds follow.
SMILES,FGF22 binding
COc1ccccc1-c1ccc([C@H]2[C@@H](C#N)N(C(=O)CN(C)C)[C@H]2CO)cc1,i
N#C[C@H]1[C@H](c2ccc(-c3cccc(F)c3)cc2)[C@H](CO)N1C(=O)NC1CCCC1,i
C[C@H]1CN([C@@H](C)CO)S(=O)(=O)c2ccc(C3=CCCCC3)cc2O[C@H]1CN(C)Cc1ccccn1,i
CC(C)C#Cc1cnc2c(c1)C(=O)N([C@@H](C)CO)C[C@H](C)[C@@H](CN(C)Cc1cncnc1)O2,i
C[C@H](CO)N1C[C@H](C)[C@@H](CN(C)C(=O)Nc2ccccc2)Oc2cc(-c3cccc(C(=O)N(C)C)c3)ccc2S1(=O)=O,i
CO[C@@H]1CN(C)C(=O)c2ccc(NS(=O)(=O)c3ccc(F)cc3)cc2OC[C@H](C)NC[C@@H]1C,i
COCC#Cc1ccc([C@H]2[C@H](CO)N3CCCCN(C(=O)NC4CCCC4)C[C@@H]23)cc1,i
C[C@H]1CN([C@@H](C)CO)C(=O)c2cc(NC(=O)Nc3ccc(F)cc3)ccc2O[C@@H]1CN(C)C(=O)Nc1cccc2ccccc12,i
C[C@H](O)C#Cc1ccc2c(c1)O[C@H](CN(C)C(=O)Cc1ccccn1)[C@H](C)CN([C@H](C)CO)S2(=O)=O,i
C[C@H](CO)N1C[C@H](C)[C@@H](CN(C)CC2CC2)Oc2c(NC(=O)c3nc4ccccc4s3)cccc2C1=O,i
O=C(C[C@H]1CC[C@H]2[C@@H](COC[C@@H](O)CN2S(=O)(=O)c2cccc(F)c2)O1)NCCCN1CCOCC1,i
COC(=O)N1C[C@H](OCc2ccccc2)[C@H]2C[C@@H]1c1ccccc1O2,i
CN(C)C(=O)[C@@H]1[C@@H](CO)[C@@H]2Cn3c(ccc(C4=CCCC4)c3=O)[C@@H]2N1Cc1ccc2c(c1)OCO2,i
CC(C)CC#Cc1cnc2c(c1)C(=O)N([C@H](C)CO)C[C@H](C)[C@H](CN(C)Cc1ccc3c(c1)OCO3)O2,i
Cc1ccc(-c2cnc3c(c2)C(=O)N([C@H](C)CO)C[C@H](C)[C@@H](CN(C)S(C)(=O)=O)O3)cc1,i
Cc1ccc(S(=O)(=O)N[C@@H]2CC[C@@H](CCNC(=O)C3CCOCC3)O[C@@H]2CO)cc1,i
C[C@H](CO)N1C[C@H](C)[C@@H](CN(C)C)OCCCC[C@H](C)Oc2ccc(NC(=O)Nc3ccccc3)cc2C1=O,i
Cc1ccc(S(=O)(=O)Nc2ccc3c(c2)C(=O)N([C@H](C)CO)C[C@@H](C)[C@H](CN(C)C(=O)Nc2ccccc2)OCCCC[C@@H](C)O3)cc1,i
CC=Cc1ccc2n(c1=O)C[C@H]1[C@H](CO)[C@@H](C(=O)Nc3nccs3)N(C(=O)CC)[C@@H]21 (mixture of isomers),i
C[C@@H]1CN([C@H](C)CO)C(=O)c2cc(C#Cc3ccccc3)cnc2O[C@H]1CN(C)C(=O)c1ccccc1,i
O=C(C[C@@H]1C[C@@H]2c3cc(NC(=O)NC4CCCC4)ccc3O[C@@H]2[C@@H](CO)O1)NCCc1ccccc1,i
COc1ccc(C#Cc2ccc3c(c2)[C@H]2[C@H](CCN2C(=O)C2CCCCC2)[C@@H](CO)N3)cc1,i
CCCNC(=O)N1C[C@H]2[C@@H](c3ccccc31)[C@H](CO)N2CC1CCCC1,i
COc1ccccc1-c1ccc2n(c1=O)C[C@@H]1[C@@H](CO)[C@H](C(=O)N(C)C)[C@H]2N1C(=O)c1cccnc1,i
C[C@H](CO)N1C[C@H](C)[C@H](CN(C)Cc2ccccc2)Oc2ncc(C#CCN(C)C)cc2C1=O,i
CCCN1C[C@H](C)[C@H](OC)CN(C)C(=O)c2cc(NC(=O)C3CCOCC3)ccc2OC[C@H]1C,i
C[C@H](CO)N1C[C@H](C)[C@@H](CN(C)C(=O)c2ccccc2)Oc2cc(/C=C/c3ccccc3)ccc2S1(=O)=O,i
Cc1ccc(S(=O)(=O)Nc2ccc3c(c2)CC(=O)N([C@H](C)CO)C[C@H](C)[C@H](CN(C)C(=O)Nc2ccc(C(F)(F)F)cc2)O3)cc1,i
CC(C)CC#Cc1ccc2c(c1)O[C@@H](CN(C)C(=O)CN(C)C)[C@@H](C)CN([C@H](C)CO)S2(=O)=O,i
CCCNC(=O)C[C@H]1CC[C@H]2[C@@H](COC[C@H](O)CN2C(=O)c2cc(Cl)cc(Cl)c2)O1,i
COCCOC(=O)N1C(=O)[C@@]2(c3cc(C#CC4=CCCCC4)ccc31)[C@H](c1ccc(OCCO)cc1)N1[C@H](c3ccccc3)[C@H](c3ccccc3)OC(=O)[C@H]1[C@@H]2C(=O)N1CCc2cc(OC)c(OC)cc2C1,i
CC(C)NC(=O)N1CCCCN2[C@H](CO)[C@@H](c3ccc(C#CC4CC4)cc3)[C@@H]2C1,i
CN1C(=O)c2cc(NC(=O)c3ccc(F)c(F)c3)ccc2OC[C@@H]2O[C@H](CC(=O)N[C@@H]3CCN(Cc4ccccc4)C3)CC[C@@H]21,i
COc1ccc(NC(=O)N(C)C[C@@H]2Oc3ccc(NC(=O)C4CC4)cc3C(=O)N([C@H](C)CO)C[C@H]2C)cc1,i
C[C@@H]1CN([C@@H](C)CO)C(=O)c2cc(NS(C)(=O)=O)ccc2O[C@@H](C)CCCCO[C@@H]1CN(C)C(=O)c1ccncc1,i
COc1ccc2c3c([nH]c2c1)[C@@H](CO)N(Cc1ccccc1)CC31CCN(C(=O)Nc2cccc(F)c2)CC1,i
COc1ccc(-c2ccccc2[C@@H]2[C@@H](CO)N(C(=O)C3CC3)[C@H]2C#N)cc1,i
CO[C@@H]1CN(C)C(=O)c2ccc(NC(=O)Nc3ccccc3)cc2OC[C@@H](C)N(C(=O)CC2CC2)C[C@@H]1C,i
CCCNC(=O)N1[C@H](C#N)[C@@H](c2ccc(/C=C/c3ccccc3)cc2)[C@H]1CO,i
CC(C)CC#Cc1ccc([C@@H]2[C@H]3CN(C(=O)Cc4cccnc4)CC(=O)N3[C@H]2CO)cc1,i
O=S(=O)(NCC[C@@H]1CC[C@@H](NS(=O)(=O)c2ccccc2Cl)[C@@H](CO)O1)c1ccc(F)cc1,i
C[C@H]1CN([C@@H](C)CO)C(=O)Cc2cc(NC(=O)Nc3cccc4ccccc34)ccc2O[C@H]1CN(C)S(=O)(=O)c1ccc(Cl)cc1,i
COC(=O)[C@]12C[C@H](CC(=O)N3CCOCC3)C(=O)N(CCC3=CCCCC3)C1=C[C@H](C(C)(C)C)O[C@@H]2C,i

# Among those listed so far, 3 have two or more sulfur atoms.
SMILES,FGF22 binding
C[C@@H]1CN([C@H](C)CO)C(=O)c2cc(NS(=O)(=O)c3cccs3)ccc2O[C@@H]1CN(C)Cc1ccncc1,i
COCC#Cc1ccc2c(c1)O[C@H](CN(C)S(=O)(=O)c1ccc(C)cc1)[C@H](C)CN([C@H](C)CO)S2(=O)=O,i
O=S(=O)(NCC[C@@H]1CC[C@@H](NS(=O)(=O)c2ccccc2Cl)[C@@H](CO)O1)c1ccc(F)cc1,i

# (more compounds)
SMILES,FGF22 binding
O=C(c1cccc(F)c1)N1CCCCN2[C@H](C1)[C@H](c1ccc(-c3cccnc3)cc1)[C@@H]2CO,i
Cc1ccc(S(=O)(=O)Nc2ccc3c(c2)CC(=O)N([C@@H](C)CO)C[C@@H](C)[C@H](CN(C)S(=O)(=O)c2cccs2)O3)cc1,i
CC(C)NC(=O)Nc1ccc2c(c1)C(=O)N([C@@H](C)CO)C[C@@H](C)[C@H](CN(C)CC1CC1)OCCCC[C@@H](C)O2,i
CN(C)CCCNC(=O)C[C@H]1C=C[C@H](NC(=O)Cc2cccnc2)[C@H](CO)O1,i
Cc1noc(C)c1NC(=O)Nc1ccc2c(c1)C(=O)N([C@H](C)CO)C[C@@H](C)[C@@H](CN(C)Cc1ccc(-c3ccccc3)cc1)O2,i
Cc1ccc(S(=O)(=O)Nc2ccc3c(c2)C(=O)N([C@H](C)CO)C[C@@H](C)[C@@H](CN(C)Cc2ccc(Cl)c(Cl)c2)O3)cc1,i
CCNC(=O)Nc1ccc2c(c1)C(=O)N(C)[C@@H]1CC[C@@H](CC(=O)NCc3ccc(F)cc3)O[C@H]1CO2,i
C[C@@H]1CN([C@H](C)CO)C(=O)Cc2cc(NC(=O)C3CCCCC3)ccc2O[C@@H]1CN(C)C(=O)Nc1ccc2c(c1)OCO2,i
COc1ccccc1-c1cnc2c(c1)C(=O)N([C@H](C)CO)C[C@H](C)[C@H](CN(C)C(=O)CN(C)C)O2,i
C[C@@H]1CCCCO[C@@H](CN(C)C(=O)c2ccccc2)[C@@H](C)CN([C@@H](C)CO)C(=O)c2cc(NC(=O)c3ccccc3)ccc2O1,i
C[C@@H]1CN([C@H](C)CO)C(=O)c2cccc(NC(=O)c3cnccn3)c2O[C@H]1CN(C)C(=O)Nc1ccc(C(F)(F)F)cc1,i
O=C(NCC1CC1)[C@@H]1[C@@H](CO)[C@@H]2Cn3c(ccc(-c4cccnc4)c3=O)[C@H]1N2C(=O)C1CC1,i
C[C@H](CO)N1C[C@H](C)[C@@H](CN(C)C(=O)Nc2ccccc2)Oc2ccc(NC(=O)Nc3ccc(F)cc3)cc2C1=O,i
C[C@H]1CN([C@@H](C)CO)C(=O)Cc2cc(NC(=O)C3CCCCC3)ccc2O[C@@H]1CN(C)S(=O)(=O)c1ccccc1,i
CC(C)NC(=O)N(C)C[C@@H]1Oc2cc(C#C[C@H](C)O)ccc2S(=O)(=O)N([C@H](C)CO)C[C@H]1C,i
COc1ccc(CN(C)C[C@@H]2OCCCC[C@@H](C)Oc3ccc(NS(C)(=O)=O)cc3C(=O)N([C@H](C)CO)C[C@@H]2C)cc1,i
C[C@H](CO)N1C[C@H](C)[C@@H](CN(C)CC2CCOCC2)Oc2cc(C#C[C@@H](C)O)ccc2S1(=O)=O,i
C[C@H](CO)N1C[C@H](C)[C@@H](CN(C)Cc2ccccn2)Oc2ncc(C#CC3CC3)cc2C1=O,i
C[C@H](CO)N1C[C@H](C)[C@H](CN(C)Cc2ccc(C(=O)Nc3ccccc3N)cc2)Oc2c(NC(=O)Nc3ccccc3)cccc2C1=O,i
COc1cccc(C(=O)Nc2ccc3c(c2)C(=O)N(C)C[C@H](OC)[C@@H](C)CN(C(=O)C2CCCC2)[C@H](C)CO3)c1,i
CCCNC(=O)N1[C@H](CO)[C@H](c2ccccc2)[C@@H]1C#N,i
O=C(Nc1ccc(F)cc1)N[C@@H]1CC[C@@H](CCNS(=O)(=O)c2cccc(Cl)c2)O[C@H]1CO,i
C[C@@H]1CN([C@@H](C)CO)C(=O)Cc2cc(NC(=O)CCCCCC(=O)Nc3ccccc3N)ccc2O[C@@H]1CN(C)S(=O)(=O)c1ccc(F)cc1,i
